# High-throughput results as filed in PubChem BioAssay.
# CSC inhib: cancer stem cell inhibition; inhibition, % at 7.5 µM; 300,000 tested, 1.1% active; cancer stem cell-like cells viability, luminescence; AID 2717;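 active = mean at 75% or more and at least half the replicates too; inconclusive = mean and replicates disagree; tested in HMLE shEcad cells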;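 also: 0% = median of negative and 100% = median of positive control wells; the first replicate is given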
# UUG fidelity: alters start codon recognition fidelity in yeast; S. cerevisiae UUG-firefly luciferase reporter, luminescence/redox ratio; activity score, % at 18.7 µM; 350,000 tested, 0.13% active; AID 602363;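 active = replicate mean at a twofold rise or more, about +100% in these data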;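 also: firefly luciferase made from a UUG start codon reports start codon fidelity; reporter light over untreated wells divided by growth signal over untreated wells; some hits fall short of that in this replicate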
# eIF4H inh: inhibitors of RNA binding by human eIF4H; Q15056; eIF4H fluorescence polarization binding assay; inhibition, % at 35 µM; 290,000 tested, 0.94% active;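 active = 50% or more with normal probe brightness, or confirmed in later tests; inconclusive = above 50% with abnormal brightness, or retests that disagree; inactive = below 50% or failed in later tests; about a fifth of its hits are not listed in these tables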;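 also: calls also rest on retests at 20 µM and on dose response follow-up; 0% = protein and probe with vehicle and 100% = probe without protein; strong numbers were not always called active; many hits fall short of the cut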
# Env fusion inh: inhibitors of HIV Env-mediated cell fusion; HeLa-JRFL Env/CEM21 cell fusion, luciferase; inhibition, % at 12.3 µM; 360,000 tested, 1.1% active; AID 651610;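 active = mean replicate inhibition score of at least 50 and every replicate individually at or above 50; inconclusive = only one of the two criteria met; inactive = mean below 50 and not all replicates reaching 50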;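 also: 0% = plate neutral controls and 100% = maraviroc near 300 nM; one replicate is shown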
# MT1-MMP act inh: MT1-MMP (human) activation inhibition | HT1080 RFP-PRO-GFP cells, GFP/RFP ratio fluorescence, overnight; percent of plate control window, DMSO zero | 360,000 tested, 0.061% active | GFP/RFP ratio change, % at 20 µM | P50281;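 active = GFP/RFP ratio change of at least 30% with cell ATP level not reduced by more than half and red fluorescence within 50% of control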; also: strong numbers were not always called active
#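 Material: RFP-PRO-GFP reporter HT1080 cells. Dosing: single-point 20 µM compound, 1% DMSO. Controls: DMSO and RFP-L50D-GFP cell wells. Timing: cells overnight before dosing, compound overnight, 37 °C, 5% CO2. Measure: GFP/RFP fluorescence ratio.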
# PABP FP inh: PABP-poly(A) binding inhibition; P11940; PABP-poly(A) RNA binding, fluorescence polarization; inhibition, % at 35 µM; 290,000 tested, 1% active; AID 2014;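 active = 50% or more with normal probe brightness, or confirmed in later tests; inconclusive = above 50% with abnormal brightness, or retests that disagree; inactive = below 50% or failed in later tests; about a fifth of its hits are not listed in these tables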;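 also: calls also rest on retests at 20 µM and on dose response follow-up; controls were probe without protein and protein plus probe with vehicle; some compounds called inactive have numbers as strong as hits; many hits fall short of the cut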
# Rce1 inh: blocks yeast Ras-converting enzyme. AID 2563. calls only. yeast membranes, quenched prenylated peptide cleavage fluorescence. 290,000 tested, 0.27% active;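 active = fall in fluorescence gain of 50% or more versus controls, with final raw signal at or below 3038400; inconclusive = same 50% fall but final raw signal above 3038400; inactive = fall in fluorescence gain under 50%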;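 also: plate controls were neutral control wells for no effect and wells lacking membranes for full effect; tested at 10 µM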
# Target sequence (Q03530 whole entry, looked up): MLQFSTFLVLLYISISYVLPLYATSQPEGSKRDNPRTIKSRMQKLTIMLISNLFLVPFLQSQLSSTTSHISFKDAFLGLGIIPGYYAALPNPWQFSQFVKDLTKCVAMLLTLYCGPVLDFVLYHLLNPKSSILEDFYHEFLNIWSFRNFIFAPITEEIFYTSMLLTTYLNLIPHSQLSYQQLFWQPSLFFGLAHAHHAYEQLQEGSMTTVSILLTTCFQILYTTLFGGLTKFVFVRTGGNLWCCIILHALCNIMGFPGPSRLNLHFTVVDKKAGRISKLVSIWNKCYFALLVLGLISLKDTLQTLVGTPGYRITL
# eIF4H inh retest: also measured in eIF4H inh; calls as there; inhibition, %; compound at 20 µM; confirmation average;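 mean of two retest wells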
# PABP FP inh retest: also measured in PABP FP inh; calls as there; inhibition, %; compound at 20 µM; confirmation repeats;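 mean of two retest wells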
# MT1-MMP act inh RFP: recorded beside MT1-MMP act inh, whose call it bears; RFP signal change, %; measured here: RFP expression control read;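 0 = vehicle wells; hits needed this value within 50% of zero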
# Active calls of the source: *; i = inactive; ? = inconclusive; nt = no result given.
SMILES,CSC inhib,UUG fidelity,eIF4H inh,Env fusion inh,MT1-MMP act inh,MT1-MMP act inh RFP,PABP FP inh,Rce1 inh,others
O=C(COc1ccccc1F)NCc1ccc(-n2cccc2)cc1,6,-14,-7,-10,3,3,-2,i,
Cc1ccc(NC(=O)c2ccsc2)cc1NS(C)(=O)=O,5,nt,-11,nt,-1,-2,-6,i,
Cc1cc2cc(C(c3nnnn3Cc3ccco3)N3CCc4ccccc43)c(=O)[nH]c2cc1C (stereo unspecified),3,nt,26*,nt,-8,5,77*,i,eIF4H inh retest=72*;PABP FP inh retest=54*
Cc1ccccc1Cn1c2ccccc2c2cnn(CC(=O)NCc3ccccn3)c(=O)c21,-12,-4,-4,2,-2,-4,0,i,
COc1ccc(OC)c(C2C(C(N)=O)=C(C)Nc3nc(-c4cccc(Cl)c4)nn32)c1 (stereo unspecified),2,-19,14,33,-42,-37,1,i,
COC(=O)CSc1nc2cc3c(cc2cc1C)OCCO3,-1,-8,8,nt,1,2,0,nt,
COc1ccc(CNC(=O)CCCSc2ccccc2)cc1,-6,-23,1,-13,0,7,3,i,
COCC(=O)N/N=C(\C)CC(=O)NCc1ccco1,-8,-13,0,2,4,8,-9,i,
O=C(Nc1cccc(-c2nn[nH]n2)c1)c1cccs1,-7,-11,84,-15,0,5,14,i,eIF4H inh retest=-13;PABP FP inh retest=23
CO/C([O-])=N/c1c[n+](-c2ccc(Cl)cc2)no1,-5,-5,-3,-6,2,3,7,i,
Cc1ccc2nc(NC(=O)c3ccco3)sc2c1,7,nt,-12,nt,10,14,-5,i,
CC1CCCN(C(=O)Cn2c(=O)oc3ccccc32)C1 (stereo unspecified),0,-14,-3,-37,5,2,12,i,
COc1ccc(NC(=O)CCNC(=O)Cn2cnc3ccccc3c2=O)cc1OC,-14,-4,-14,13,0,5,1,i,
CCOc1cc(N2CCOCC2)c(OCC)cc1NC(=O)COc1cccc(CC)c1,23,5,nt,12,5,-8,nt,nt,
O=Cc1ccc(OC(=O)CCCCC(=O)Oc2ccc(C=O)cc2)cc1,-9,-13,7,-1,3,4,-7,i,
COC(=O)c1ccc2nc(C3CCCCC3)c(Cc3cccc(F)c3)n2c1,nt,1,nt,0,-1,9,nt,nt,
CCOc1ccc(NC(=O)CN2C(=O)C3CC=CCC3C2=O)cc1 (stereo unspecified),13,-18,-2,-49,-3,-2,4,i,
CCc1nnc(NC(=O)c2ccc(S(=O)(=O)N3CCCCC3C)cc2)s1 (stereo unspecified),9,-19,-5,nt,1,-4,7,i,
CCOC(=O)c1cc(-c2ccc(Cl)cc2)nc2c1c(C)nn2CCC#N,nt,nt,5,nt,-9,-8,-3,i,
Cn1c(SCC(=O)Nc2cccc(F)c2)nc2c(c1=O)SCC2,8,-16,-4,-2,-1,-15,-1,i,
CN(c1ccccc1)S(=O)(=O)c1cccc(C(=O)NC2CCCCC2)c1,-12,0,nt,nt,3,-1,nt,nt,
C=CCNCCOc1cccc(Br)c1,6,-5,-2,nt,3,3,8,i,
COc1cccc(OC)c1C(=O)NC(C)C12CC3CC(CC(C3)C1)C2 (stereo unspecified),-11,-7,-6,-36,1,-3,6,i,
NNC(=O)c1cccc(COc2cccc(Br)c2)c1,nt,-24,-5,-62,-1,-1,2,nt,
COc1ccc(-n2c(C)cc(C(=O)Cn3nc(C(=O)O)c4ccccc4c3=O)c2C)cc1,17,nt,5,-13,2,0,6,i,
CC(C)c1ccccc1OCC(=O)N1CCCCCCC1,-3,3,-4,4,-1,-2,5,i,
CCOc1ccc(NC(=O)CSc2nnnn2-c2ccc(C(N)=O)cc2)cc1,-7,-3,-5,-53,0,-1,5,i,
COc1cccc(NS(=O)(=O)c2ccc3c(c2)NC(=O)C(C)S3)c1 (stereo unspecified),-20,nt,-18,-6,1,-7,-2,i,
CC1=C(C(=O)OCC(C)C)[C@]23C(=O)c4ccccc4[C@@]2(O1)OC(N)=C3C#N,-20,-9,1,-27,4,4,6,i,
CCOC(=O)C1=CSC2=NS(=O)(=O)CCN12,-17,-8,1,nt,-6,-2,-2,i,
CC(=O)Nc1ccc(OCC(O)CN2CCN(S(=O)(=O)c3ccc(NC(C)=O)cc3)CC2)cc1 (stereo unspecified),1,1,4,nt,3,-2,-7,i,
CCC1CN(C(=O)NCc2cccc(OC)c2)c2ccccc2O1 (stereo unspecified),-2,5,-1,-17,-6,-7,-3,i,
OC(c1cccc(Cl)c1)c1nc(-c2cnc3ccccc3c2)cs1 (stereo unspecified),nt,-19,nt,-33,2,-2,nt,nt,
Cn1c(SCC(=O)NC2CC2)nnc1-c1ccccn1,-6,-22,-6,-246,-2,-2,9,i,
N#Cc1nc(-c2cccs2)oc1NCCc1ccccc1,7,nt,-1,nt,6,-3,4,?,
Clc1ccc(COn2ccnc2)cc1Cl,nt,nt,-1,-6,2,3,-1,i,
CN(C)S(=O)(=O)c1ccc(N2CCCC2)c(C(=O)OCC(=O)N2CCN(c3ccccc3)CC2)c1,0,nt,nt,-11,-4,-5,nt,i,
CCOC(=O)N1CCN(S(=O)(=O)c2cc(OCC(N)=O)c(C)cc2Cl)CC1,12,-5,-8,17,-4,-4,-11,i,
COc1ccccc1-c1ccc(Nc2cccc(C(F)(F)F)c2)nn1,-17,-15,9,nt,4,4,0,i,
Cn1c(N)c(C(=O)COC(=O)COc2ccccc2Cl)c(=O)n(C)c1=O,nt,-11,nt,2,3,4,nt,nt,

# As a working copy, some entries already given:
SMILES,CSC inhib,UUG fidelity,eIF4H inh,Env fusion inh,MT1-MMP act inh,MT1-MMP act inh RFP,PABP FP inh,Rce1 inh,others
CC(=O)Nc1ccc(OCC(O)CN2CCN(S(=O)(=O)c3ccc(NC(C)=O)cc3)CC2)cc1 (stereo unspecified),1,1,4,nt,3,-2,-7,i,
CCC1CN(C(=O)NCc2cccc(OC)c2)c2ccccc2O1 (stereo unspecified),-2,5,-1,-17,-6,-7,-3,i,
OC(c1cccc(Cl)c1)c1nc(-c2cnc3ccccc3c2)cs1 (stereo unspecified),nt,-19,nt,-33,2,-2,nt,nt,
Cn1c(SCC(=O)NC2CC2)nnc1-c1ccccn1,-6,-22,-6,-246,-2,-2,9,i,
N#Cc1nc(-c2cccs2)oc1NCCc1ccccc1,7,nt,-1,nt,6,-3,4,?,
Clc1ccc(COn2ccnc2)cc1Cl,nt,nt,-1,-6,2,3,-1,i,
CN(C)S(=O)(=O)c1ccc(N2CCCC2)c(C(=O)OCC(=O)N2CCN(c3ccccc3)CC2)c1,0,nt,nt,-11,-4,-5,nt,i,
CCOC(=O)N1CCN(S(=O)(=O)c2cc(OCC(N)=O)c(C)cc2Cl)CC1,12,-5,-8,17,-4,-4,-11,i,
COc1ccccc1-c1ccc(Nc2cccc(C(F)(F)F)c2)nn1,-17,-15,9,nt,4,4,0,i,
Cn1c(N)c(C(=O)COC(=O)COc2ccccc2Cl)c(=O)n(C)c1=O,nt,-11,nt,2,3,4,nt,nt,

# Next results:
SMILES,CSC inhib,UUG fidelity,eIF4H inh,Env fusion inh,MT1-MMP act inh,MT1-MMP act inh RFP,PABP FP inh,Rce1 inh,others
COc1ccc(Nc2nc(C)cc(C)c2C(N)=O)c(OC)c1,0,-18,22,nt,-9,3,6,i,
O=C(Cn1ccnc1)c1ccc(O)c(O)c1,9,17,nt,18,-1,2,nt,nt,
CCCCC(c1nnnn1CC1CCCO1)N1CCN(c2ccccc2)CC1 (stereo unspecified),0,nt,-2,-3,1,-1,-8,i,
O=c1cc(CN2CCN(c3ccc(F)cc3)CC2)nc2sccn12,-7,-11,20,nt,-3,5,26,i,
CCc1ccc(N2CN=c3s/c(=C\c4ccccc4)c(=O)n3C2)cc1,0,-13,-13,-32,4,2,6,i,
O=S(=O)(/C=C/c1ccccc1)NC1CCCCCCC1,nt,nt,3,13,-3,-6,-2,i,
CCC(C)NC(=O)Cn1cc2c(n1)CCC(C)C2 (stereo unspecified),3,-14,-2,-13,0,3,-3,i,
Cc1ccc2nc(C3CCCCC3)[nH]c2c1,-10,-20,1,-61,-3,-1,10,i,
Oc1ccc(C(=S)N2CCCCC2)cc1Cl,-12,-26,-10,-61,4,-2,-4,i,
CC1(C(=O)NC2CCCCC2)CCC(=O)N1CC(F)(F)F (stereo unspecified),nt,-3,nt,-8,3,3,nt,nt,
CCCCOC(=O)CSC1=C(C#N)C(c2cccnc2)C(C(=O)OCC)=C(c2ccccc2)N1 (stereo unspecified),9,nt,-4,17,-3,-5,18,i,
Cc1ccc(-n2nnnc2-c2nc3ccccc3s2)cc1,-11,nt,-4,-4,2,2,2,i,
O=C(CCN1C(=O)/C(=C/c2ccc(F)cc2)SC1=S)NCCCn1ccnc1,65,-10,-13,7,2,5,-8,i,
O=C(CCCCCNC(=O)N1CCn2c1nc1ccccc12)NCc1ccccc1Cl,7,-11,-7,12,0,4,-2,i,
Cc1nnsc1C(=O)N/N=C/c1ccc2ccccc2c1O,78*,nt,4,15,-144,-10,5,i,
O=C(Cc1ccc(-n2cnnn2)cc1)NC12CC3CC(CC(C3)C1)C2,-6,-6,-2,nt,-4,-1,3,i,
Cc1ccccc1C(=O)Nn1c(C)ccc1C,1,nt,7,nt,nt,nt,5,i,
O=C(CN1CCOCC1)N(c1ccccc1)c1ccc2ccccc2c1,9,-6,-2,-19,0,3,-5,i,
CCOc1ccc(NC(=O)CCSc2nnc(C)s2)cc1,-14,-6,-6,-233,5,1,5,i,
Cc1cc(/C=N/n2cnnc2)c(C)n1-c1ccc(C(=O)O)cc1,-3,-7,-1,-23,1,0,25,i,
O=c1[nH]nc(Cc2ncc(C(F)(F)F)cc2Cl)c2ccccc12,0,-9,-8,0,6,-10,-4,i,
COc1ccc(OC)c(N(CC(=O)NC2CCCC2)S(=O)(=O)c2ccc(OC)c(OC)c2)c1,-3,-14,-2,4,2,5,9,nt,
COc1ccc(C(=O)NC(=S)N(Cc2ccccc2)Cc2ccccc2)cc1,29,-32,5,-13,12,0,3,i,
O=C(CCCN1C(=O)/C(=C\c2ccccc2)SC1=S)N1CCOCC1,28,-14,nt,-6,1,-3,nt,nt,
Cc1cc(C)cc(C(=O)NCC(=O)NNC(=O)CSc2ccccc2F)c1,-2,-16,nt,3,-2,1,nt,nt,
COc1ccc(OC)c(S(=O)(=O)CC(=O)c2cc3ccc(OC)cc3oc2=O)c1,-6,-1,8,nt,-6,1,15,i,
COCCNC(=O)c1cc(OC)c(OC)cc1[N+](=O)[O-],-13,nt,4,11,2,4,-3,i,
CCCN1C(=O)C(=O)N(CC(=O)N2c3ccccc3NC(=O)CC2C)C1=O (stereo unspecified),nt,-5,nt,-8,3,0,nt,nt,
CCc1nc(SCC(=O)NCc2ccc(F)cc2)c2c(=O)n(C)c(=O)n(C)c2n1,-6,5,-2,nt,2,-1,-2,i,
Cc1ccc(S(=O)(=O)Oc2ccc(/C=C(/NC(=O)c3ccccc3)C(=O)NC(C)C(=O)O)cc2)cc1 (stereo unspecified),1,nt,-10,-8,-4,2,-6,i,
Cc1nc(NC(=O)CSc2nnnn2Cc2ccccc2)sc1C,-19,-9,2,-111,-5,-5,2,i,
O=C(Cn1c(C(F)(F)F)nc2ccccc21)N=Nc1c(O)[nH]c2ccc(Br)cc12,28,-11,3,-3,-1,-3,13,i,

# This is a random part of the collection; any-hit rate near 2.9%.
